# Bioassay records from PubChem BioAssay.
# WNV protease inh – inhibitors of WNV NS2B-NS3 protease, primary screen, biochemical, fluorogenic substrate; Genome polyprotein (West Nile virus), P06935; fluorogenic substrate Ex360/Em465; active compounds read low; z-score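 (tested at a level between 10 and 100 µM)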; 0.18% of 65,000 active; AID 577, 2007;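 active means z-score at -3 or under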;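 further: score is relative to mean and spread of the compound wells of a plate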
# Target sequence (P06935 1371-1501 limits assumed): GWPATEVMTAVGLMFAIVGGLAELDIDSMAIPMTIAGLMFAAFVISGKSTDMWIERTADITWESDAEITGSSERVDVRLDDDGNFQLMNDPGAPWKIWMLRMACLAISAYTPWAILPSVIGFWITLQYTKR
# Target sequence (P06935 1502-1679 limits assumed): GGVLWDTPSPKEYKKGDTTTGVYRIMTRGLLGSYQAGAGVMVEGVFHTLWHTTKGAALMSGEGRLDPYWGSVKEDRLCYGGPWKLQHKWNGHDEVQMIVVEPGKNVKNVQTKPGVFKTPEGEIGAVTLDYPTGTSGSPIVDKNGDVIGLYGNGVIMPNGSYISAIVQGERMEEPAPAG
# MT1-MMP promoter – inhibitors of MT1-MMP promoter transcription, cell-based, luciferase reporter, luminescence (AID 618); MT1-MMP promoter luciferase reporter cells, luminescence; calls from a first round at 10 µM; hits with a dose series show EC50 in µM; 0.62% of 87,000 active;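 active means over half of the reporter light lost at 10 µM or EC50 under 50 µM; inactive means the rest and hits that failed the dose series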;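 further: actives suppress MT1-MMP promoter-driven transcription so potencies describe inhibitors; HT1080 fibrosarcoma cells; overnight exposure; toxic or luciferase-blocking compounds were not removed from the actives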
# Hsc70 ATP site – Hsc70 inhibitors, probe displacement, primary screen, biochemical, fluorescence polarization (AID 568); 83,000 tested, under 10 active; Hsc70 fluorescence polarization, probe displacement; higher % means a stronger effect; strong numbers were not always called active; displacement, % at 20 µM; hits with a dose series show IC50 in µM;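 active means displacement above 50% without optical interference and an IC50 on retest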;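 further: ATPase domain with a fluorescein-tagged ATP probe; 0% = vehicle and 100% = excess ADP; read after one hour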
# * hit, by the source's call; i = inactive; . = no result given; + = active, no number.
structure | WNV protease inh | MT1-MMP promoter | Hsc70 ATP site
COC(=O)c1cc(OC)c(OC)cc1NC(=O)c1ccccc1 | 1.9 | i | -2.7%
CCOc1nc(-c2ccc(OC)cc2)ccc1-c1noc(-c2cc(OC)c(OC)c(OC)c2)n1 | -0.36 | i | -14%
OCCn1c(CSc2nnc(-c3ccco3)n2-c2ccccc2)nc2ccc(Cl)cc21 | 0.54 | i | -3.1%
Cc1cc(S(=O)(=O)NCCN(C)C)c(C)s1 | 0.09 | i | 3.2%
CC(C)(Oc1ccc(Cl)cc1)C(=O)NCCCn1ccnc1 | -0.58 | i | 2.5%
Cc1cc(NO)nc(-c2ccc(Br)cc2)n1 | -1.2 | i | 1.6%
C=CCNC(=O)c1cccc(Br)c1 | -0.06 | i | -0.4%
CC1CC(C)(C)N(C(=O)CN2C(=O)c3ccccc3C2=O)c2ccccc21 (centres undefined) | . | i | -1.1%
N=c1ccn(Cc2ccc(Cl)cc2Cl)cc1 | . | i | 4.5%
O=C(COc1ccc(S(=O)(=O)N2CCCC2)cc1Cl)Nc1ccc2c(c1)OCO2 | 2 | i | 10%
Cc1cccc(-c2n[nH]c(=S)n2Cc2ccccc2)c1 | . | i | 1.3%
CC(=O)c1ccc(NC(=O)CCC(=O)OCC(F)(F)C(F)F)cc1 | 0.09 | i | -1.1%
COC(=O)Cc1c(C)c2cc(Cl)c(OC(=O)c3ccco3)cc2oc1=O | 7.3 | i | 3.4%
COc1ccc(-c2noc(CN(C(=O)c3cccs3)C(C)C)n2)cc1 | . | i | 2.6%
O=C(CSc1nc2ccccc2[nH]1)c1ccco1 | -1.4 | i | -5.8%
Cc1cc(CCC(=O)O)c(C)cc1CCC(=O)O | -0.82 | i | 5.2%
Cc1ccnc(NS(=O)(=O)c2ccc(NS(=O)(=O)c3cccs3)cc2)n1 | -0.13 | i | -7.7%
CC(C)(C)NC(=O)c1ccc2c(c1)N(CC(=O)N1CCN(c3ccccc3F)CC1)C(=O)C(C)(C)O2 | -1.2 | i | -2.7%
COC(=O)c1[nH]c2cccc(OC)c2c1NC(=O)CN1CC2(C)CC1CC(C)(C)C2 (centres undefined) | -0.22 | i | -5.2%
O=C1c2cccnc2C(O)N1Cc1ccccc1 (centres undefined) | 0.61 | i | -2.0%
N#Cc1nc(COc2ccccc2)oc1NCCCn1ccnc1 | -3 | i | 0.7%
COC(=O)C1=C(C)Nc2ncnn2C1c1ccc(C)o1 (centres undefined) | 1.8 | i | 3.0%
Brc1ccc(-c2nn3c(-c4ccccn4)nnc3s2)o1 | -0.65 | i | 0.7%
CCCN1C(=O)c2cc(C(=O)NC3CCCC3)ccc2C1O (centres undefined) | 1.8 | i | 5.2%
Cc1cc(=O)[nH]c(Nc2cccc(C(F)(F)F)c2)n1 | 1.3 | i | -5.9%
CNC(=O)CN(c1ccc2c(c1)OCCO2)S(C)(=O)=O | . | i | 6.2%
Cc1cccc(N2CCN(C(=O)c3ccncc3)CC2)c1C | -0.47 | i | 4.1%
COc1ccc(OC)c(C2CC(=O)N3CN(c4cccc(Cl)c4)CSC3=C2C#N)c1 (centres undefined) | 0.31 | i | 2.6%
O=C(NCc1ccco1)C1CCCN(S(=O)(=O)c2ccc(-n3cnnn3)cc2)C1 (centres undefined) | 0.64 | i | 3.3%
COC(=O)C1=C(C)N=c2s/c(=C/c3cccs3)c(=O)n2C1c1ccc(F)cc1 (centres undefined) | . | i | -20%
CC(C)CCNC(=O)c1ccc2c(c1)ncn2C1CCCCC1 | . | i | 0.7%
CCCCOc1ccc(NC(=O)C(=O)NCCC2=CCCCC2)cc1 | . | i | 2.6%
Cc1nnc2n(-c3ccccc3)c(=O)c3c4c(sc3n12)COC(C)(C)C4 | -1.4 | i | 1.3%
O=C(NCc1ccccc1)c1c(F)c(F)c(F)c(F)c1F | 1.9 | i | 0.8%
CC1CCC(C(=O)NC(C(=O)NCCCN2CCOCC2)C(C)C)CC1 (centres undefined) | 0.11 | i | 1.9%
CC(NC(=O)c1ccco1)C1CCCO1 (centres undefined) | . | i | -5.2%

# A section of the results above:
structure | WNV protease inh | MT1-MMP promoter | Hsc70 ATP site
COC(=O)C1=C(C)N=c2s/c(=C/c3cccs3)c(=O)n2C1c1ccc(F)cc1 (centres undefined) | . | i | -20%
CC(C)CCNC(=O)c1ccc2c(c1)ncn2C1CCCCC1 | . | i | 0.7%
CCCCOc1ccc(NC(=O)C(=O)NCCC2=CCCCC2)cc1 | . | i | 2.6%
Cc1nnc2n(-c3ccccc3)c(=O)c3c4c(sc3n12)COC(C)(C)C4 | -1.4 | i | 1.3%
O=C(NCc1ccccc1)c1c(F)c(F)c(F)c(F)c1F | 1.9 | i | 0.8%
CC1CCC(C(=O)NC(C(=O)NCCCN2CCOCC2)C(C)C)CC1 (centres undefined) | 0.11 | i | 1.9%
CC(NC(=O)c1ccco1)C1CCCO1 (centres undefined) | . | i | -5.2%

# More compounds.
structure | WNV protease inh | MT1-MMP promoter | Hsc70 ATP site
O=C(CSc1ccccc1C(=O)O)Nc1cccc(C(=O)O)c1 | 0.78 | i | 1.1%
O=C(Nc1ccc(OCc2ccccc2)cc1)c1cccnc1 | . | i | -1.2%
c1ccc(-c2cc(N3CCCCC3)nc(-c3ccccc3)n2)cc1 | . | i | 1.1%
O=C(Nc1ccccn1)[C@@H]1CCC(=O)N1C(=O)OCc1ccccc1 | 0.37 | i | -6.4%
Cc1cc2n(n1)SC(Nc1ccc(F)c(Cl)c1)N2 (centres undefined) | . | i | 3.6%
CS(=O)(=O)Nc1ccccc1C(=O)Nc1ccc2c(c1)OCCO2 | -1.1 | i | 5.8%
CCOC(=O)N1CCN(c2c(NCc3cccs3)c(=O)c2=O)CC1 | -2.2 | i | -0.3%
COc1cc(NS(=O)(=O)c2ccc(OC)c(OC)c2)cc(OC)c1 | 0.47 | i | -3.1%
CN(C)CCNC(=O)c1ccc(COCC(F)(F)F)cc1 | 0.3 | i | -0.5%
CCCNC(=O)CN(C)C(=O)c1n[nH]c2ccccc12 | -0.37 | i | -2.3%
O=C(Nc1ccc(Cc2ccc(NC(=O)N3CCOCC3)cc2)cc1)N1CCOCC1 | -0.08 | i | -3.5%
Cc1cccc(C)c1-n1c(C)cc(/C=N\Nc2ccc([N+](=O)[O-])cn2)c1C | . | i | -25%

# Pulled one by one from the entries so far (two):
structure | WNV protease inh | MT1-MMP promoter | Hsc70 ATP site
Cc1cc2n(n1)SC(Nc1ccc(F)c(Cl)c1)N2 (centres undefined) | . | i | 3.6%
c1ccc(-c2cc(N3CCCCC3)nc(-c3ccccc3)n2)cc1 | . | i | 1.1%

# Carrying on:
structure | WNV protease inh | MT1-MMP promoter | Hsc70 ATP site
COCC(=O)Nc1cc(OC)ccc1OC | 0.09 | i | -5.1%
COC(=O)c1cc(NC(=O)Cn2c(=O)cnc3ccccc32)cc(C(=O)OC)c1 | 0.61 | i | -0.6%
Cc1c(NC(=S)/C=C2\N(C)c3ccccc3C2(C)C)c(=O)n(-c2ccccc2)n1C | . | i | -1.5%
CN(Cc1ccccc1)c1nc2c(c(=O)[nH]c(=O)n2C)n1CCCc1ccccc1 | 0.17 | i | -7.0%
CC(C)CNS(=O)(=O)c1ccccc1C(=O)N1CCCCC1 | 0.01 | i | 0.0%
Cc1ccc(S(=O)(=O)N2CCN(c3nc4ccccc4nc3-n3nc(C)cc3C)CC2)cc1 | 0.01 | i | 3.4%
Cc1ccc(SCC(=O)NCc2ccco2)cc1 | -0.0025 | i | -1.1%
COC(=O)c1ccccc1NC(=O)CSc1nnnn1C | . | i | -1.8%
O=C1CN(C(=O)c2ccc(Br)o2)C(c2ccccc2)c2cc(Cl)ccc2N1 (centres undefined) | 0.83 | i | 1.5%
Nc1nc(C2CC(=O)OC23CCCCC3)cs1 (centres undefined) | . | i | -2.5%
N#C/C(=C\c1ccc(O)c(O)c1)S(=O)(=O)c1ccccc1 | -0.91 | i | -30%
COc1cc(CNc2ncn[nH]2)cc(Br)c1OC | -0.84 | i | 2.3%
CCn1cc(C(=O)NCc2ccco2)c2cc(OC)c(OC)cc2c1=O | -0.25 | i | 2.8%
CNC(=S)N1CCN(c2c(F)cc3c(=O)c(C(=O)O)cn(C4CC4)c3c2OC)CC1C (centres undefined) | . | i | 3.1%
CCOC(=O)C1CCN(C(=O)N2CCOCC2)CC1 | 1 | i | -2.1%
O=C(O)c1cc(N2C(=O)C3C4C=CC(C4)C3C2=O)ccc1NCc1cccnc1 (centres undefined) | 0.53 | i | 7.2%
CCCCCCNc1c(C(=O)OCC)c(=O)[nH]c2ccccc12 | 0.45 | i | -1.2%
CCOC(=O)c1[nH]c2cc(OC)c(OC)cc2c1NC(=O)CN1CCN(C)CC1 | 1.6 | i | -1.6%
CCOC(=O)c1nnn(-c2nonc2OC)c1-c1ccccc1 | 0.92 | i | 4.9%
COC(=O)Cn1c(CN2CCN(c3ccccc3F)CC2)nc2c1c(=O)n(C)c(=O)n2C | -0.56 | i | 5.4%
COc1ccc(C(=O)n2nc(-c3ccco3)nc2N)cc1 | . | i | 5.2%
CC(C)Oc1ccc(CNCCC2(C(C)C)CCOC(C)(C)C2)cc1 (centres undefined) | . | i | 2.5%
CCCc1[nH][nH]c(=O)c1C(c1cccc(Cl)c1)C(C#N)C#N (centres undefined) | -0.5 | i | -4.8%
O=S(=O)(Nc1cnc2ccccc2c1)N1CCCCCC1 | 1.3 | i | -1.9%
Cc1cc(C)c2c(n1)nn1c(-n3ccnc3)cc(C)nc21 | 0.45 | i | 1.2%
O=C(O)c1cc(S(=O)(=O)Nc2ccc3oc(=O)sc3c2)ccc1O | -0.14 | i | -3.3%
Brc1cccc(OCCOCCn2ccnc2)c1 | . | i | -0.4%
CCOC(=O)N1CCC(N(C(=O)Nc2ccccc2)C(C)CC)CC1 (centres undefined) | -0.82 | i | -10%
Cc1cc(=O)[nH]c2c1c(C)nn2-c1ccccc1 | -1.6 | i | 1.1%
CC(=O)CCS(=O)(=O)c1ccc(C)c(C)c1 | 0.74 | i | -3.9%
Cn1c(=O)cc(-c2ccccc2)c2ccccc21 | -0.4 | i | -3.4%
Cc1cc(C)c(C)c(OCC(=O)N2CCCCCC2)c1 | . | i | -6.9%
CCOC(=O)C1=C(N)Oc2cc(C)n(C)c(=O)c2C1c1ccncc1 (centres undefined) | 0.72 | i | -3.1%
CSC1=C(C#N)C(c2ccc(Cl)cc2)C2=C(CC(C)(C)CC2=O)N1 (centres undefined) | -0.14 | i | -2.5%
C/C(=N\NS(C)(=O)=O)c1ccc(C)cc1 | . | i | 1.7%
Cc1cc(C)nc(SCc2nc3ccccc3n2C)n1 | -1.6 | i | -6.8%
Nc1nsc2ccccc12 | -1.2 | i | 7.8%
COc1ccc(N2CCN(c3oc(COc4ccccc4)nc3C#N)CC2)cc1 | -0.66 | i | -7.1%
COc1ccc2c(=O)c(-c3nc(C)cs3)coc2c1 | -0.19 | + | 2.2%
CSc1nc(C)cc(-n2cc(F)c(=O)[nH]c2=O)n1 | -0.34 | i | 2.3%
CN(C(=O)c1cnccn1)c1nnc(-c2cnccn2)s1 | 2.3 | i | 0.5%
COc1ccc(OC)c(CN2CCCC(CO)C2)c1 (centres undefined) | . | i | -2.1%
Cc1sc2nc(CN3CCCC3)nc(N3CCN(S(=O)(=O)c4cccs4)CC3)c2c1C | 1.3 | i | -2.1%
COC(=O)C1CCN(C(=O)c2cc(OC)c(OC)c(OC)c2)CC1 | 0.33 | i | 2.5%
COc1ccc(C)cc1-n1c(SCC(=O)Nc2cc(C)on2)nc2sc(C)c(C)c2c1=O | 0.83 | i | -7.1%
CCn1c(=O)c2c(nc3n2CC(C)CN3CCc2ccccc2)n(C)c1=O (centres undefined) | 0.57 | i | -8.6%
Cc1ccc(C)c(-n2c(CNC(=O)c3ccco3)nnc2SCC(=O)N2CCc3ccccc32)c1 | -1.3 | i | -1.3%
COc1cccc(NC(=O)CSc2nncn2-c2ccccn2)c1 | -1.1 | i | -4.1%
O=C(Nc1ccccn1)C12CC3CC(C1)CC(C(=O)Nc1ccccn1)(C3)C2 | 1.7 | i | 4.1%
Cc1cccnc1NC(=O)CCCN1C(=O)c2ccccc2C1=O | -0.8 | i | 2.4%
N/C(=N\O)c1ccc(NC(=O)c2ccc(Br)o2)cc1 | -1.4 | i | 4.1%
CCn1cc(C(=O)N2CCOCC2)c(=O)c2cc(S(=O)(=O)N(C)C)ccc21 | 0.55 | i | -0.3%
O=C(Nc1cccnc1)c1cc(F)cc(F)c1 | . | i | -1.2%
O=C(CSc1nc(-c2ccco2)cc(C(F)(F)F)n1)Nc1ccc2c(c1)CCC2 | 1.4 | i | -3.1%
COc1ccc(N(CC(=O)Nc2cc(OC)ccc2OC)S(C)(=O)=O)cc1 | -0.88 | i | 2.7%
CCOc1nc(Nc2ccc(OC)c(Cl)c2)nc(N2CCN(c3ccc(OC)cc3)CC2)n1 | . | i | 0.7%
COc1cccc(-n2nc(-c3ccnn3-c3ccccc3)c(=O)n(C)c2=O)c1 | . | i | 2.2%
Cc1cc(=O)c2c(O)c(O)ccc2o1 | 1.2 | i | 3.1%
COc1ccc(C(CNC(=O)c2ccc3c(c2)C(=O)N(CCC(C)C)C3=O)N2CCOCC2)cc1 (centres undefined) | 0.29 | i | 5.1%
CCn1cc(C(=O)NCc2ccco2)c(=O)c2cc(S(=O)(=O)N3CCC(C)CC3)ccc21 | -0.02 | i | -3.0%
COc1ccc(CNC(=O)COC(=O)c2c[nH]c(=O)[nH]c2=O)cc1OC | 0.65 | i | -0.4%
